# KCNQ2 inh – KCNQ2 channel blockers in CHO-K1 cells – cell-based, FluxOR thallium flux, B-score, primary screen (AID 2156); B-score at 10 µM; O88943; 310,000 tested, 1.1% active; 20 min; active compounds read low; only compounds with negative scores are shown here; some inactives read as strong as hits;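 active = fluorescence ratio B-score at most minus 3 library SDs, with starting brightness B-score within 2 library SDs, cut at about -5.5 in these data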
# Target sequence (O88943 whole entry, looked up): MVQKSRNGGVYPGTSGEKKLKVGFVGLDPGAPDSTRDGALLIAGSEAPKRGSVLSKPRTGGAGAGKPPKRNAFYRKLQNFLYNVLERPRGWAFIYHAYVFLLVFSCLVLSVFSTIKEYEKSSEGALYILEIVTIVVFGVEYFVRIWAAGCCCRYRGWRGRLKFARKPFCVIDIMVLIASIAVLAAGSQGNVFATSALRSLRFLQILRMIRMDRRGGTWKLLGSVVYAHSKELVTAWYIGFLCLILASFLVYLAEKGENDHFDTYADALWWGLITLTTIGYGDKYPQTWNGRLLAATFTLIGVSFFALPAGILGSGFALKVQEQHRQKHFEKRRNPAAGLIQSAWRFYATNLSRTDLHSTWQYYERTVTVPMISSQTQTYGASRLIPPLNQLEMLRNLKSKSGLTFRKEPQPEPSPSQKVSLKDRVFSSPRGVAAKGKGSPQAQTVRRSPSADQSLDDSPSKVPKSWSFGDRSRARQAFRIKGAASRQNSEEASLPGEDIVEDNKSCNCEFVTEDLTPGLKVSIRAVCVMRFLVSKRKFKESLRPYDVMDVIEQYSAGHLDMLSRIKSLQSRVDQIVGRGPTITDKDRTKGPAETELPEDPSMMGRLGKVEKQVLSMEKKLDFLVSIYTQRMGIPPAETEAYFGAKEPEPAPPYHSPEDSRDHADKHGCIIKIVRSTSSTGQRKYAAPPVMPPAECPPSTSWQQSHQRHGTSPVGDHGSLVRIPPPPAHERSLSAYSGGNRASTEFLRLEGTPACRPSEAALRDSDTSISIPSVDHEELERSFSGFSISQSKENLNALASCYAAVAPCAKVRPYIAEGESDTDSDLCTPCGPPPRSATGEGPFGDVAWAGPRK
# KCNQ2 inh baseline – recorded beside KCNQ2 inh, whose call it bears; B-score; measured here: initial fluorescence intensity artifact check;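 brightness before thallium and not channel activity; 0 = typical well and far values either way flag optical interference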
# * marks the source's active call; other numbers are inactive results; i = inactive.
KCNQ2 inh	KCNQ2 inh baseline	Compound
i	0.6	CCOc1ccc(C2C(C(=O)c3ccco3)=C(O)C(=O)N2CCN2CCOCC2)cc1OCC (stereo not drawn)
i	0.03	CCOC(=O)c1ccc(NC(=O)CSc2nnc(COc3ccccc3OC)n2C)cc1
i	0.07	CCOC(=O)C1CCN(c2ncnc3c2oc2ccccc23)CC1
i	0.74	Cc1ccc(C)c(NC(=S)N(C)CCc2ccccn2)c1
i	4.26	O=c1oc(-c2ccc([N+](=O)[O-])cc2)nc2ccccc12
i	-0.62	COc1ccc(CN2CCC(CO)(Cc3cccc(C(F)(F)F)c3)CC2)cc1Cn1cccn1
i	-0.15	CCc1ccc(-n2c(=S)sc3c(=O)n(-c4ccccc4)c(SCC(=O)O)nc32)cc1
i	1.06	CN(C)c1nc(Oc2ccc(=O)n(C)n2)nc(N2CCOCC2)n1
i	-0.05	C=CCC(=O)OCC(=O)Nc1ccc(Cl)cn1
i	0.69	CCC(Sc1nc(=O)cc(N)n1CCc1ccccc1)C(=O)Nc1cc(C)on1 (stereo not drawn)
i	1.29	COc1ccc(/C=C/C(=O)NCCCc2ccccc2)cc1
i	-2.38	CCOC(=O)Cc1cc(-c2ccc(O)cc2)nc2ccc3ccccc3c12
i	0.24	CCOc1ccc(-n2c(O)cc(=O)[nH]c2=O)cc1
i	1.12	CC(=O)Oc1ccc([C@@H]2COc3c(ccc4c3C=CC(C)(C)O4)C2)c(OC(C)=O)c1
i	0.74	CC(C)(C)c1ccc(OCC(=O)NNC(=O)C2CCCO2)cc1 (stereo not drawn)
i	0.91	Cc1ccc(Cn2c(C(C)Nc3nc(C)cs3)nc3cc(Cl)c(Cl)cc32)cc1 (stereo not drawn)
i	1.08	O=C(CN1C(=O)/C(=C\c2ccccc2Br)Oc2ccccc21)NCCCN1CCOCC1
i	0.28	O=C(Nc1nc2ccccc2[nH]1)c1ccc(Cl)c(S(=O)(=O)N2CCCC2)c1
i	-0.61	C=CCN1C(=O)c2ccc(C(=O)NCC(c3ccccc3)N(C)C)cc2C1=O (stereo not drawn)
i	-0.34	CSCCC(NC(=O)COc1ccccc1)C(=O)NC1CCC(C)CC1 (stereo not drawn)
i	0.64	CC1=NNC(=O)C1CC(=O)N/N=C/c1sccc1C (stereo not drawn)
i	-0.62	O=C(Nc1sc2c(c1CN1CCOCC1)CCC2)c1ccc(F)cc1
i	-0.36	O=C(N/N=C/c1cn(-c2ccccc2)nc1-c1cc2ccccc2o1)c1cccnc1
i	0.04	Cc1ccc(C(C)C)c(OCC(=O)NNC(=O)C(C(C)C)N2C(=O)c3ccccc3C2=O)c1 (stereo not drawn)
i	2.02	CCCNCc1cc(OC)c(OCC(=O)NCCc2ccccc2)cc1Br

# Six entries picked at random from the list so far, as already listed:
KCNQ2 inh	KCNQ2 inh baseline	Compound
i	1.06	CN(C)c1nc(Oc2ccc(=O)n(C)n2)nc(N2CCOCC2)n1
i	-0.34	CSCCC(NC(=O)COc1ccccc1)C(=O)NC1CCC(C)CC1 (stereo not drawn)
i	1.29	COc1ccc(/C=C/C(=O)NCCCc2ccccc2)cc1
i	-0.36	O=C(N/N=C/c1cn(-c2ccccc2)nc1-c1cc2ccccc2o1)c1cccnc1
i	1.08	O=C(CN1C(=O)/C(=C\c2ccccc2Br)Oc2ccccc21)NCCCN1CCOCC1
i	0.64	CC1=NNC(=O)C1CC(=O)N/N=C/c1sccc1C (stereo not drawn)

# Additional structures:
KCNQ2 inh	KCNQ2 inh baseline	Compound
i	-1.68	Cc1ccccc1C(=O)Nn1c(C)ccc1C
i	2.27	Cc1cc(/C=N/n2cnnc2)c(C)n1-c1ccc(C(=O)O)cc1
i	-0.6	COc1ccc(OC)c(N(CC(=O)NC2CCCC2)S(=O)(=O)c2ccc(OC)c(OC)c2)c1
i	2	O=C(CN1CCOCC1)N(c1ccccc1)c1ccc2ccccc2c1
i	0.2	CCOc1ccc(NC(=O)CCSc2nnc(C)s2)cc1
i	-0.23	COc1ccc(OC)c(S(=O)(=O)CC(=O)c2cc3ccc(OC)cc3oc2=O)c1
i	-0.25	COCCNC(=O)c1cc(OC)c(OC)cc1[N+](=O)[O-]
i	0.52	C=CCNC(=S)Nc1cc(Cl)ccc1OC
i	-0.54	CC1=CC2=NC(=O)CC(C)(C(=O)N(CC(=O)NC(C)(C)C)C3CCCC3)N2C=C1 (stereo not drawn)
i	0.05	CC(=O)c1c(C)[nH]c(C(=O)CSc2nnc(-c3ccc(Cl)cc3)n2CC2CCCO2)c1C (stereo not drawn)
i	0.21	Nc1nonc1C(=O)NCCNC(=O)c1ccc(Cl)cc1
i	-0.58	Cc1nc(NC(=O)CSc2nnnn2Cc2ccccc2)sc1C
i	0.78	CC1CCN(Cc2c(C(=O)N/N=C/c3ccc(C(C)C)cc3)nnn2-c2nonc2N)CC1
i	-1.69	CC(O)CNCc1ccccc1C(F)(F)F (stereo not drawn)
i	0.52	O=C(CSc1nc2ccccc2o1)N/N=C/c1ccccc1
i	-0.78	O=C1C2C(c3ccccc3)CC=CC2[C@H](c2ccc3ccccc3c2)N1Cc1ccccc1 (stereo partly drawn)
i	-2.02	Cc1c(C(=O)C(=O)N2CCN(Cc3ccc4c(c3)OCO4)CC2)c2ccccc2n1C
i	-2	C/C(CC(=O)NCc1ccccc1)=N\NC(=O)c1cnccn1
i	0.36	COc1ccc(N2C(=O)CC(N3CCN(c4nc5ccccc5s4)CC3)C2=O)cc1 (stereo not drawn)
i	-1.41	CN(C)S(=O)(=O)c1ccc(NCC2COc3ccccc3O2)c([N+](=O)[O-])c1 (stereo not drawn)
i	0.75	NC(=O)c1ccc(Nc2nnc(-c3ccc(O)cc3)c3ccccc23)cc1
i	1.02	CCOC(=O)c1cnc2c(c(C)nn2C)c1Oc1ccc(OC)cc1
i	-0.29	COc1ccc(-c2cn[nH]c2-c2ccc(OCc3ccc([N+](=O)[O-])cc3)cc2O)cc1OC
i	0.03	Cc1cc(C)nc(SCC(=O)c2ccc([N+](=O)[O-])cc2)n1
i	0.31	O=C(CSc1nc(=O)[nH]c2c1CCCC2)Nc1ccc(F)cc1F

# A second format for three compounds above.
# Below each SMILES – KCNQ2 inh | KCNQ2 inh baseline
- O=C1C2C(c3ccccc3)CC=CC2[C@H](c2ccc3ccccc3c2)N1Cc1ccccc1 (stereo partly drawn)
    i | -0.78
- Cc1c(C(=O)C(=O)N2CCN(Cc3ccc4c(c3)OCO4)CC2)c2ccccc2n1C
    i | -2.02
- C/C(CC(=O)NCc1ccccc1)=N\NC(=O)c1cnccn1
    i | -2

# Later entries.
KCNQ2 inh	KCNQ2 inh baseline	Compound
i	-0.81	N=C1CCCN1c1ccccc1O
i	-0.38	CC(C)CN=Cc1c(O)c([N+](=O)[O-])cc2oc3c(c12)CCCC3
i	-0.01	CCOC(=O)Cc1csc(NC(=O)CSc2nnc(Cc3csc(N)n3)n2C)n1
i	1.79	COc1ccccc1C1CC(=O)NC(C)=C1C(=O)OCC(C)C (stereo not drawn)
i	1.84	COc1ccc(CCN(C)C2CCCN(S(=O)(=O)C(C)C)C2)cc1OC (stereo not drawn)
i	1.91	N#Cc1cc2ccc(N3CCOCC3)cc2cc1C#N
i	-0.08	CCCc1c(C)nc(N2CCN(c3cccc(OC)c3)CC2)[nH]c1=O
i	0.37	Cc1ccc(CSc2nnc(C(F)(F)F)n2Cc2ccc(F)cc2)cc1
i	1.07	Cc1ccc2nc(C)cc(SCC(=O)N/N=C/c3ccco3)c2c1
i	0.11	CCCC(=O)NCCCc1nc2ccccc2[nH]1
i	-1.02	CCCN(CC(=O)Nc1ccccc1OC)C(C)C(=O)NC(C)CCc1ccccc1 (stereo not drawn)
i	-1.17	CCOc1cc(C2NC(=O)NC(C)=C2C(=O)OCc2ccccc2)ccc1O (stereo not drawn)
i	1.06	O=C(COC(=O)c1cnccn1)Nc1ccc(Cl)cc1C(F)(F)F
i	-0.82	Cc1cccc(NC(=O)CSc2nc3c(oc4ccccc43)c(=O)n2-c2ccccc2)c1
i	1.38	O=C(CCn1c(=S)oc2ccccc21)Nc1ccc(F)cc1
i	0.02	O=C(CSc1nnc(-c2cccs2)o1)OC1CCCCC1
i	-1.32	c1ccc(N2CCN(c3cnc4ccccc4n3)CC2)cc1
i	0.03	S=C(NCc1ccncc1)NC1CCCCC1
i	1.04	CC(=O)c1sc(-c2ccccc2)cc1N
i	0.02	O=C(C1CCN(S(=O)(=O)c2cnc[nH]2)CC1)N1CCn2c1nc1ccccc12
i	0.04	O=C(CN1C(=O)CSC1=O)NCc1ccccc1
i	-0.4	C[C@@H](C(=O)N1CCN(C(=O)OC(C)(C)C)CC1)n1cc(CCCN=C(NC(=O)OC(C)(C)C)NC(=O)OC(C)(C)C)nn1
i	-0.23	CCOc1cc(N2CCOCC2)c(OCC)cc1NS(=O)(=O)c1cc(NC(C)=O)ccc1OC
i	0.23	CCOC(=O)c1cnn(-c2ncnc3sc(C)c(C)c23)c1N
i	-1.68	COc1cccc(NC(=O)C2CC2(c2cccc(OC)c2)c2cccc(OC)c2)c1 (stereo not drawn)
i	-0.12	COc1ccc(CNC(=O)CCn2c(=O)oc3ccccc32)c(OC)c1
i	-0.2	CCC(=O)Nc1cccc2ccccc12
i	0.76	COc1ccc(N2CCN(C(=O)Cn3c(=O)c4cccn4c4cccnc43)CC2)cc1
i	-0.76	COc1cc(/C=N/Nc2ccccc2[N+](=O)[O-])cc(OC)c1O
i	-0.73	C=C(C)Cn1c(=O)c(NC(=O)c2ccccc2)c2n(c1=S)CCC2
i	1.61	Cc1cc(OCC(=O)Nc2ccc(CN3CCCCC3)cc2)ccc1Cl
i	-0.52	CCC(=O)NC(=S)NNC(=O)COc1ccc(Br)cc1
i	-0.17	O=C(CN1CCN(c2ccc(Cl)cc2)CC1)Nc1cccc(F)c1
i	1.02	COc1ccc(-c2nnc(SCc3cc(C)cc(C)c3)o2)cc1
i	0.95	O=C(CN1CCN(S(=O)(=O)c2ccc(Br)cc2)CC1)N/N=C/c1ccccc1C(=O)O
i	1.81	O=C(COC(=O)c1ccc2c(c1)OCCO2)NCCC1=CCCCC1
i	-0.06	Cc1nn(-c2ccccc2)c(C)c1/C=N/n1cnnc1
i	1.5	CCCOc1ccc2ccccc2c1/C=C1\SC(=O)NC1=O
i	-0.08	CCn1c(SCC(=O)N2CCN(c3ccccc3)CC2)nnc1-c1ccoc1C
i	1.5	Cc1ccc(S(=O)(=O)NCC(=O)N(CC(=O)NCC2CCCO2)Cc2ccccc2Cl)cc1 (stereo not drawn)
i	-1.29	CCN1CCN(C(=S)Nc2cc(C(=O)OC)ccc2C(=O)OC)CC1
i	0.51	NC(=O)C1(N2CCCCC2)CCN(C(=O)Nc2ccccc2C(F)(F)F)CC1
i	0.83	CCOC(=O)C1CCCN(CC(=O)NC2=Nc3ccccc3N=C(C)C2c2ccccc2)C1 (stereo not drawn)
i	1.09	CCOP(=O)(c1ccccc1)c1nc(-c2ccccc2C)oc1NCc1ccccc1 (stereo not drawn)
i	0.89	C=CCN=C(C)C1=C(O)CCC1=O
i	-0.44	CC(=O)CCC(=O)c1ccc2ccccc2c1
i	-0.84	O=C(CCc1c[nH]c2ccccc12)NCCOc1ccccc1
i	2.6	Cc1nc2ccc(Cl)cc2nc(C)/c1=N\O
i	0.48	N#Cc1ccc(C2N=C(c3ccccc3)NO2)cc1 (stereo not drawn)
i	1.16	COc1ccc(N2C(=O)CCC(C(=O)N(C)CCc3ccccn3)C2c2ccc(OC)c(OC)c2)cc1 (stereo not drawn)

# 4 of the compounds above, as tab-separated lines.
compound	KCNQ2 inh	KCNQ2 inh baseline
CCCOc1ccc2ccccc2c1/C=C1\SC(=O)NC1=O	i	1.5
CCn1c(SCC(=O)N2CCN(c3ccccc3)CC2)nnc1-c1ccoc1C	i	-0.08
Cc1ccc(S(=O)(=O)NCC(=O)N(CC(=O)NCC2CCCO2)Cc2ccccc2Cl)cc1 (stereo not drawn)	i	1.5
CCN1CCN(C(=S)Nc2cc(C(=O)OC)ccc2C(=O)OC)CC1	i	-1.29

# Additional compounds
KCNQ2 inh	KCNQ2 inh baseline	Compound
i	-0.73	CC1CCN(C(=O)c2ccc(NS(=O)(=O)c3cccc4cccnc34)cc2)CC1
i	-0.91	CC(=O)Nc1ccc(S(=O)(=O)CCC(=O)O)cc1
i	0.39	Cc1ccccc1C1c2[nH]c3ccccc3c2CCN1Cc1cccn1-c1ncccn1 (stereo not drawn)
i	-0.02	CC(C)(C)c1nc2ccc([N+](=O)[O-])cc2[nH]1
i	-0.82	O=C(Nc1ccc(N2CCN(C(=O)C3CC3)CC2)cc1)c1cccs1
i	0.06	COc1ccc(-c2nc(-c3ccccn3)nc(N3CCN(C)CC3)c2C#N)cc1
i	1.42	Cc1n[nH]c(C)c1CCc1nc2c3ccccc3nc(SCC(=O)Nc3ccccc3F)n2n1
i	-0.44	CCOC(=O)CSc1nc2cc(C(F)(F)F)cnc2n1C
i	0.75	CN(Cc1cc(-c2ccccc2)on1)C(=O)c1cc(COc2c(F)cccc2F)on1
i	-0.13	COc1cc(C(=O)NCCOc2ccccc2)c(Br)c(OC)c1OC
i	-0.07	CC(C)(C)NC(=O)CN(Cc1cccs1)C(=O)CNS(=O)(=O)c1ccc(F)cc1
i	0.17	Cc1ccc2c(c1)nnn2C1CCN(S(=O)(=O)c2ccc(C(=O)N(C)C)cc2)CC1
i	-0.28	Cc1ccc(S(=O)(=O)N2CCOC23CCN(C(=O)c2ccccc2Br)CC3)cc1
i	-0.64	O=C(Nc1ccc(Br)cn1)c1cccc2ccccc12
i	-2.31	O=C1NCCCN1Cc1ccc(F)cc1Cl
i	1.74	CN(Cc1ccccc1F)C(=O)c1ccc(NS(=O)(=O)c2ccc3[nH]c(=O)[nH]c3c2)cc1
i	0.09	O=C(/C=C(\O)c1ccccc1)C(=O)NNC(=O)c1ccccc1
i	0.12	Cc1ccc(OCCOC(=O)C2CCN(S(=O)(=O)c3ccc(C)c(C)c3)CC2)cc1
i	-1.15	CCOc1ncccc1C(=O)OCC(=O)c1ccccc1Br
i	0.98	Cc1ccccc1C(=O)N1CCN(S(=O)(=O)c2cccs2)CC1

# Source: PubChem (Johns Hopkins Ion Channel Center)

# A portion of the library, so the mix of outcomes need not match the whole.
